SARS PLP yeast: SARS-CoV PLP inhibition in yeast | S. cerevisiae expressing SARS-CoV PLpro, growth rescue; control for the full effect not named in the record | Potency, µM (titrated, usually from 32.9 µM), for the others: top-dose activity, positive = growth rescue | 0.19% of 330,000 active | AID 485353; further: 0% is about no effect; nearly all actives have a fitted effect of over 55% in size; growth read by luminescence after 48 h
Cruzain inh Det: inhibitors of Trypanosoma cruzi cruzain with detergent; P25779; purified cruzain, Z-FR-AMC fluorescence, 0.01% Triton; Potency, µM, inactives show max response, negative = inhibition, most hits filed as inhibitors; 0.43% of 200,000 active; AID 1478; active means well fitted curve in the direction sought with a large enough effect; inconclusive means small, poorly fitted or top-dose-only effect, or another doubt; inactive means no such curve, though single readings can be large; an effect the other way counts as inactive or inconclusive;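 further: plate controls were neutral wells for no effect and buffer without enzyme for full effect; nearly all actives have a fitted effect of over 40% in size; top concentration of the series not given in the record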
Target sequence (P25779 123-467 limits assumed): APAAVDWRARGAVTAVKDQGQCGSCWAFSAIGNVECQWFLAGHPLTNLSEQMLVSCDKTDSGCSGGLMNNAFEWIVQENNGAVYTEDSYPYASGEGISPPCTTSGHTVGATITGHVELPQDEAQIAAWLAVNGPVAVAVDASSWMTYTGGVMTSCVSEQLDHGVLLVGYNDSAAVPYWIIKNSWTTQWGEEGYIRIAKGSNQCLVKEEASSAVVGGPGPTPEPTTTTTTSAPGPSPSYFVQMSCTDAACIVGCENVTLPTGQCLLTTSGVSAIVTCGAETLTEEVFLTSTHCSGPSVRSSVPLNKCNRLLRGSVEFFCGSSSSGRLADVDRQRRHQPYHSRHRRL
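15 min RT preincubation of 1.5 nM cruzain with compound, then 2 uM Z-FR-AMC added; kinetic AMC fluorescence, 60 s delta. Triton X-100 0.01%, pH 5.5.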
Marburg entry inh: blocks Marburg virus binding to or entry into cells; Potency, µM (titrated, usually from 37.8 µM), inactives show top-dose activity change, negative = inhibition, hits mostly inhibitors; AID 540276; 1.8% of 300,000 active; Marburg virus pseudotyped entry inhibition, cell reporter; control for the full effect not named in the record; about a third of the inactives were read at about 46 µM; active = well fitted inhibition curve with a large enough effect; inconclusive = small, poorly fitted or top-dose-only effect, or effect the other way; inactive = flat fitted curve, though single readings scatter; tested in HEK293 cells; about a fifth of its hits are not listed in these tables; further: on the % scale 0 is the no-effect control and ±100 the full control effect; luciferase read-out
StopGo reporter: lowers the luciferase signal of an FMDV 2A StopGo reporter; Potency, µM (highest dose often 57.9 µM), inactives show top-dose signal change, negative = less light; 1.2% of 410,000 active; human cells with a luciferase reporter of 2A StopGo recoding; control for the full effect not named in the record; active = well fitted falling curve with a large enough effect; inconclusive = small, poorly fitted or top-dose-only effect; inactive = no such curve, though single readings can be large or run the other way; tested in HEK293T cells; further: on the % scale 0 is the no-effect control and ±100 the full control effect; nearly all actives have a fitted effect of over 45% in size; luciferase light after 4 h
RE007 growth inh: less growth of the S. pombe RE007 Vpr strain. S. pombe RE007 Vpr strain, BacTiter-Glo ATP luminescence, 24 h; control for the full effect not named in the record. Potency, µM (doses to about 92.2 µM), for inactives: at the top dose activity change, negative = less growth. 0.21% of 360,000 active. AID 651644; active = well fitted falling curve with a large enough effect; inconclusive = small, poorly fitted or top-dose-only effect; inactive = no such curve, though single readings can be large or run the other way;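 further: on the % scale 0 is the no-effect control and ±100 the full control effect; nearly all actives have a fitted effect of over 50% in size; the assay follows cell death caused by Vpr and the record does not say whether a fall means rescue or toxicity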
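Fission yeast RE007 carrying one integrated HIV-1 vpr copy, seeded at OD 0.01 in PMG+AL medium with 23 nL pinned compound. Grown 24 h at 30 degrees; viability read by BacTiter-Glo luminescence after 5 min.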
NS1 function inh: influenza NS1 inhibition; S. cerevisiae slowed by influenza A NS1, growth recovery by OD600; Potency, µM (top dose mostly 46.1 µM), inactives show at the highest dose activity, positive = more growth; 0.4% of 270,000 active; AID 2326; further: actives are rising curves; nearly all actives have a fitted effect of over 50% in size
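A cell-based growth assay was used: compounds that relieve NS1-induced slow growth of budding yeast raise OD600. Assay medium was yeast nitrogen base with ammonium sulphate and -URA supplement, pH 6.0, with 2% galactose.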
LASV entry inh: inhibitors of Lassa virus binding or cell entry. Lassa virus pseudotype entry inhibition, cell reporter; control for the full effect not named in the record. Potency, µM (top dose mostly 37.9 µM), for inactives: top-dose activity change, negative = inhibition, actives largely listed as inhibitors. 1.2% of 300,000 active; active means well fitted inhibition curve with a large enough effect; inconclusive means small, poorly fitted or top-dose-only effect, or effect the other way; inactive means flat fitted curve, though single readings scatter; tested in HEK293 cells; further: on the % scale 0 is the no-effect control and ±100 the full control effect; nearly all actives have a fitted effect of over 50% in size; luciferase read-out
Cruzain noTriton: inhibitors of Trypanosoma cruzi cruzain without detergent. AID 1476. Potency, µM, for inactives: max response, negative = inhibition, most hits filed as inhibitors. purified cruzain, Z-FR-AMC fluorescence, no detergent. 2.3% of 200,000 active. P25779; active means well fitted curve in the direction sought with a large enough effect; inconclusive means small, poorly fitted or top-dose-only effect, or another doubt; inactive means no such curve, though single readings can be large; an effect the other way counts as inactive or inconclusive;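 further: plate controls were enzyme without inhibitor for no effect and buffer without enzyme for full effect; nearly all actives have a fitted effect of over 40% in size; top concentration of the series not given in the record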
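Detergent-free condition (0.00005% Triton X-100) in acetate buffer pH 5.5 with DTT. 1.5 nM enzyme and compound were pre-mixed 15 min, then 2 uM Z-FR-AMC substrate added; reaction progress from fluorescence change between first and third reads (60 s).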
An asterisk follows results filed as active; ? = inconclusive; . = no result given; & = joins results of further samples; [ ] = another dose, or the depositor's remark. Unless noted, the call rests on the fitted dose curve; in most records, active means well fitted rising curve with a large enough effect; inconclusive means small, poorly fitted or top-dose-only effect; inactive means no such curve, though single readings can be large or run the other way. Potency means the concentration at half of the fitted maximal effect.

SMILES	SARS PLP yeast	Cruzain inh Det	Marburg entry inh	StopGo reporter	RE007 growth inh	NS1 function inh	LASV entry inh	Cruzain noTriton
Cc1cc(-c2nnc3n2N=C(c2ccc(F)cc2)CS3)n[nH]1	2%	.	-1%[46.1 µM]	-8%	10%	1%	-11%	.
CCOc1cc(S(=O)(=O)NCc2ccc3c(c2)OCO3)c(C)cc1C	-9%	-14%	-6%[46.1 µM]	44%[activator]	19%	-68%	3%	-21%
CC1CCCCN1C(=O)CN1C(=O)CSc2ccc(S(=O)(=O)N3CCOCC3)cc21 (centres undefined)	?	.	.	-15%	8%	-12%	.	.
Cc1cc(C)cc(Nc2ccc3nonc3c2[N+](=O)[O-])c1	.	.	-20%	?	18%	.	3%	.
COC(=O)c1ccc(C2c3c(oc4ccccc4c3=O)C(=O)N2CCCN2CCOCC2)cc1 (centres undefined)	-6%	-6.6%	.	-13%	-15%	-9%	.	-5%
Cc1cccc(C)c1NC(=O)C(NS(=O)(=O)c1ccc2c(c1)CCC(=O)N2)c1ccccc1 (centres undefined)	.	1.2%	-3%[46.1 µM]	-16%	.	.	?	-4%
Cc1cc(C)cc(N(CC(=O)NC2CCCC2)C(=O)C2(C)CC(=O)N=C3C=CC=CN32)c1 (centres undefined)	0%	.	.	-10%	17%	-2%	.	.
O=c1cc(-c2ccc3c(c2)OCO3)oc2ccccc12	-10%	0.5%	-2%	.	8%	13%	20%	-3%
Cc1ccc(-c2csc(NC(=O)c3ccc(C)o3)n2)cc1	-64%	-13%	5%	-4%	?	-12%	0%	-15%
CC(=O)OCC1=C(C(=O)O)N2C(=O)C(NC(=O)c3ccc(COc4cccc(Cl)c4Cl)o3)C2SC1 (centres undefined)	3%	.	3%[46.1 µM]	2%	-15%	.	3%[46.1 µM]	.
CCOC(=O)CSc1ncnc2c1cnn2-c1ccc(Cl)cc1	-5%	-4.6%	3%	-11%	-23%	1%	-2%	-3%
Cc1cccc(/C=N/NC(=O)c2ccc(NC(=O)c3ccccc3Cl)cc2)n1	3%	.	?	-2%	-17%	17%	18%[46.1 µM]	.
CCc1ccc(S(=O)(=O)/N=C2\C=C(Nc3cccc(C(=O)O)c3)C(=O)c3ccccc32)cc1	-2%	.	3%[46.1 µM]	?	-11%	5%	?	.
COc1ccc(/C(N)=N/OC(=O)CCc2ccccc2)cc1OC	0%	.	.	6%	2%	-2%	.	.
Cc1c(Cc2ccc3c(c2)OCO3)sc(NC(=O)c2ccc3ccccc3c2)c1C(N)=O	11%	-1.5%	0%	12%	-7%	11%	-9%	10µM*
COc1ccc(COC(=O)C2CC(=O)N(Cc3ccc(C)cc3)C2)cc1 (centres undefined)	-4%	.	19%	-17%	-12%	-20%	5%	.
Cn1c(=O)c2sccc2n2c(CCCC(=O)NCc3cccnc3)nnc12	0%	.	.	-5%	18%	-2%	.	.
O=C(Nc1ccccc1-c1ccccc1)C12CC3CC(CC(C3)C1)C2	-6%	-1.2%	7%	26%	-6%	2%	0%	-4%
Cc1ccccc1-n1ccnc1SCC(=O)Nc1cccc(S(=O)(=O)NC2=NCCC2)c1	-5%	.	2%	19%	3%	.	?	.
COC/C=C/C1=CC2=CC(=O)C(C)(OC(=O)c3cnc4ccccc4n3)C(=O)C2=CN1CCCOC(C)C (centres undefined)	-1%	.	.	-22%	4%	3%	.	.
COCCNC(=O)/C(C#N)=C/c1cc(C)n(-c2ccc(C)cc2)c1C	0%	.	?	13%	42%	-7%	?	.
Cc1ccc[n+](CC(=O)Nc2ccc(Cl)c([N+](=O)[O-])c2)c1	0%	.	-10%	-13%	-20%	1%	?	.
COc1cccc(N2CCN(C(=O)C3CCN(S(=O)(=O)c4ccc5c(c4)CC(C)N5C(C)=O)CC3)CC2)c1 (centres undefined)	-6%	.	.	?	2%	-1%	.	.
Cc1[nH]n(-c2ncc(-c3ccccc3)s2)c(=O)c1C(c1ccc(Cl)cc1)C(C#N)C#N (centres undefined)	-18%	?	14%	20µM*	-13%	?	7%	13µM*
O=C(N/N=C/c1cccc(OC(=O)c2ccc([N+](=O)[O-])cc2)c1)c1cccnc1	1%	.	-5%[46.1 µM]	-6%	2%	2%	?	.
Further results:
SMILES	SARS PLP yeast	Cruzain inh Det	Marburg entry inh	StopGo reporter	RE007 growth inh	NS1 function inh	LASV entry inh	Cruzain noTriton
Cc1c(C(=O)N(Cc2ccco2)Cc2cccs2)oc2ccccc12	-3%	.	-2%	-10%	-24%	.	1%	.
Cc1ccc2[nH]c(=O)c3cc(C(=O)NCCN4CCN(C)CC4)sc3c2c1	4%	-8.4%	17%	-21%	3%	2%	?	-6%
CCOC(=O)c1c(S(=O)(=O)Nc2cccc(-c3ccno3)c2)c(C)n(C)c1C	0%	.	.	45%[activator]	7%	2%	.	.
O=C(COC(=O)c1ccc(N2CCCC2=O)cc1)NCc1ccco1	-1%	2.6%	18%[46.1 µM]	15%	-11%	-7%	?	0%
CC(C)(C)NC(=O)N1CCC(CO)(Cc2ccccc2Cl)CC1	-1%	.	-9%[46.1 µM]	-3%	5%	-1%	.	.
Cc1ccccc1NC(=O)C1CCN(C(=O)N2CCOc3ccccc32)CC1	0%	.	.	?	-10%	-1%	.	.
CCc1ccc(-c2nn(CC(=O)NC3CCCC3)c3c2cnc2ccc(C)cc23)cc1	.	-1.2%	.	5%	.	.	0%[46.1 µM]	2%
N/C(=N\OC(=O)C(c1ccccc1)c1ccccc1)c1ccccn1	-10%	-2.2%	-16%	2%	2%	-9%	?	-9%
CCOc1ccc(Cn2nnc(C(=O)NCCc3ccccc3)c2N)cc1	2%	2.1%	.	-1%	-8%	3%	.	3%
CCc1ccc(NC(=O)Nc2cnccn2)cc1	-6%	.	.	57%[activator]	9%	-45%	.	.
CCOc1ncccc1C(=O)Nc1ccccc1C(=O)NCc1ccc2c(c1)OCO2	-1%	-2.9%	-25%&-25%	?	2%	-7%	-10%	-1%
O=C(Nc1c(C(=O)O)oc2ccc(Br)cc12)c1ccccc1	-1%	-12%	.	0%	2%	-33%	.	-12%
COC(=O)C1=Nc2ccccc2/C1=C\c1c(O)n(-c2cc(OC)ccc2OC)c(=O)[nH]c1=O	-7%	-4.8%	-1%	0%	8%	4%	0%	7%
CN(CC(=O)Nc1ccccc1Br)C(=O)COc1cccc2c1OC(C)(C)C2	19%	.	0%	-6%	-29%	.	?	.
CCOC(=O)C(C)n1cnc2scc(-c3ccc(C)cc3)c2c1=O (centres undefined)	-12%	.	.	8%	5%	-43%	.	.
OCCOCCNc1ncnc2c1c(-c1ccccc1)cn2-c1ccccc1	4%	.	.	?	1%	-18%	.	.
COC(=O)CSc1nc2sc3c(c2c(=O)n1-c1ccccc1)CCN(C)C3	5%	-14%	5%	-3%	-4%	8%	0%	1%
COc1ccc(C(=O)OCC(=O)NCc2ccccc2)c(OC)c1OC	-2%	.	14%[46.1 µM]	-5%	7%	-3%	?	.
CCC(C(=O)O)n1c2ccccc2c2cn[nH]c(=O)c21 (centres undefined)	-1%	.	.	-15%	17%	9%	.	.
NCCC(=O)N1c2ccccc2Sc2ccc(Cl)cc21	5%	.	.	-26%	6%	?	.	.
CCN(CC(=O)Nc1c(F)cccc1F)C(=O)CSCC(=O)Nc1cc(C)on1	2%	.	5%	-17%	7%	.	1%	.
COn1c(=O)c(-c2cccs2)[n+]([O-])c2ccccc21	-4%	1.7%	?	?	-22%	-91%	0%	7%
O=C1c2cc(F)ccc2-n2c1nc1ccccc1c2=O	-3%	.	?	?	?	-58%	?	.
CC(C)CCn1c(SCc2ccc(Cl)cc2)nc2c1c(=O)[nH]c(=O)n2C	12%	3.2%	-29%	.	3%	-27%	?	5%
CCSC1(SCC)N=C(N)C2(C#N)C(c3ccccc3)NC3=C(CCC3)C12C#N (centres undefined)	-4%	-1.8%	-8%	-5%	?	-2%	1%	?
COc1ccc(OC)c(S(=O)(=O)NCc2ccccc2)c1	-1%	-1.6%	-3%	128%[activator]	0%	-3%	?	-2%

Copied from the entries so far for reference:
SMILES	SARS PLP yeast	Cruzain inh Det	Marburg entry inh	StopGo reporter	RE007 growth inh	NS1 function inh	LASV entry inh	Cruzain noTriton
Cc1c(C(=O)N(Cc2ccco2)Cc2cccs2)oc2ccccc12	-3%	.	-2%	-10%	-24%	.	1%	.
Cc1ccc2[nH]c(=O)c3cc(C(=O)NCCN4CCN(C)CC4)sc3c2c1	4%	-8.4%	17%	-21%	3%	2%	?	-6%
CCOC(=O)c1c(S(=O)(=O)Nc2cccc(-c3ccno3)c2)c(C)n(C)c1C	0%	.	.	45%[activator]	7%	2%	.	.
O=C(COC(=O)c1ccc(N2CCCC2=O)cc1)NCc1ccco1	-1%	2.6%	18%[46.1 µM]	15%	-11%	-7%	?	0%
CC(C)(C)NC(=O)N1CCC(CO)(Cc2ccccc2Cl)CC1	-1%	.	-9%[46.1 µM]	-3%	5%	-1%	.	.
Cc1ccccc1NC(=O)C1CCN(C(=O)N2CCOc3ccccc32)CC1	0%	.	.	?	-10%	-1%	.	.
CCc1ccc(-c2nn(CC(=O)NC3CCCC3)c3c2cnc2ccc(C)cc23)cc1	.	-1.2%	.	5%	.	.	0%[46.1 µM]	2%
N/C(=N\OC(=O)C(c1ccccc1)c1ccccc1)c1ccccn1	-10%	-2.2%	-16%	2%	2%	-9%	?	-9%
CCOc1ccc(Cn2nnc(C(=O)NCCc3ccccc3)c2N)cc1	2%	2.1%	.	-1%	-8%	3%	.	3%

High-throughput results (PubChem)
